DUX4 inh: inhibitors of DUX4-driven ZSCAN4 reporter expression, primary screen, 293T cells, Gaussia and Italica luciferase | 37,000 tested, 0.8% active | 293T-iDUX4 ZSCAN4-Gaussia luciferase reporter, 24 h; hits give low values | activity change, negative = inhibition, % (no concentration beside the values);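 active = -10% or lower and over 25 points stronger than a control reporter; inconclusive = -10% or lower with a smaller gap; inactive = above -10%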;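 note: 0% = median of neutral control wells and -100% = median of positive control wells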
DUX4 inh difference: recorded beside DUX4 inh, whose call it bears; Gaussia minus Italica difference, %; measured here: selective DUX4 reporter inhibition;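 worked out from the two reporters; negative = selective loss of the DUX4 reporter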
DUX4 inh control: also measured in DUX4 inh; calls as there; activity change, negative = inhibition, %; measured here: Italica tet-on control reporter;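 0 = neutral control and -100 = positive control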
Active calls of the source: *; ? = inconclusive; . = not tested or not shown. Not all compounds are listed, so the mix of outcomes need not match the whole.

SMILES	DUX4 inh	DUX4 inh difference	DUX4 inh control
C[C@@H]1CN([C@@H](C)CO)C(=O)Cc2cc(NC(=O)Nc3cccc4ccccc34)ccc2O[C@H]1CN(C)S(=O)(=O)c1ccc(Cl)cc1	-2.2	-5.4	3.2
COc1ccc(S(=O)(=O)N(C)C[C@H]2Oc3c(NC(=O)Nc4c(C)noc4C)cccc3C(=O)N([C@@H](C)CO)C[C@H]2C)cc1	-1.6	-4.4	2.8
C[C@H](CO)N1C[C@H](C)[C@@H](CN(C)S(=O)(=O)c2cccc(F)c2)Oc2ncc(C#CC3(O)CCCC3)cc2C1=O	5.5	-3.0	8.5
C/C=C/c1ccccc1[C@@H]1[C@@H](CO)N(C(=O)CN2CCOCC2)[C@H]1C#N	13.0	7.2	5.7
CCS(=O)(=O)N1CCCCN2[C@H](C1)[C@H](c1ccc(-c3ccccc3C)cc1)[C@@H]2CO	-3.2	2.4	-5.6
CO[C@@H]1CN(C)C(=O)c2cc(NS(=O)(=O)c3cccc(F)c3)ccc2OC[C@H](C)N(Cc2cc(F)ccc2F)C[C@H]1C	?	.	.
CN(C)C(=O)c1cccc(-c2ccc([C@H]3[C@@H](CO)N4CCCCN(S(C)(=O)=O)C[C@@H]34)cc2)c1	13.7	9.8	3.9
CCCC(=O)Nc1ccc2c(c1)C(=O)N(C)C[C@H](OC)[C@H](C)CN(C)[C@H](C)CO2	-4.4	-3.9	-0.4
COc1cccc(-c2ccc3c(c2)[C@H]2[C@H](CCN2S(=O)(=O)c2ccccc2OC)[C@@H](CO)N3)c1	?	.	.
C[C@@H]1CCCCO[C@H](CN(C)C(=O)Nc2cccc3ccccc23)[C@H](C)CN([C@@H](C)CO)C(=O)c2cc(N(C)C)ccc2O1	-0.9	-3.0	2.2
C[C@@H]1CN([C@@H](C)CO)C(=O)c2cc(/C=C/c3ccccc3)cnc2O[C@@H]1CN(C)C(=O)c1ccc2c(c1)OCO2	-2.4	-2.9	0.6
CCCNC(=O)NC[C@H]1[C@@H](c2ccc(C3=CCCCC3)cc2)[C@@H](CO)N1C(C)=O	-4.7	-2.2	-2.5
CCC(=O)N1CC[C@@H]2[C@H](CO)Nc3ccc(C#Cc4ccc(OC)cc4)cc3[C@@H]21	3.3	8.4	-5.2
CC=Cc1ccc2n(c1=O)C[C@@H]1[C@@H](CO)[C@H](C(=O)NCc3cccc(OC)c3)N[C@H]21 (mixture of isomers)	2.2	7.8	-5.6
CCCNC(=O)N1C[C@H]2[C@@H](c3ccccc31)[C@H](CO)N2C(=O)Nc1ccccc1	1.9	3.3	-1.4
CCC(=O)N[C@H]1CC[C@@H](CC(=O)NCC2CC2)O[C@@H]1CO	0.6	4.6	-4.0
CO[C@@H]1CN(C)C(=O)c2ccc(NC(=O)Nc3c(C)noc3C)cc2OC[C@@H](C)N(C)C[C@H]1C	5.0	8.3	-3.3
O=C(C[C@H]1CC[C@@H]2[C@H](COC[C@H](O)CN2Cc2ccc(C(F)(F)F)cc2)O1)N1CCc2ccccc2C1	?	.	.
CNC(=O)C[C@H]1CC[C@H]2[C@@H](COc3ccc(NC(=O)NCc4ccccc4)cc3C(=O)N2C)O1	1.5	-3.9	5.4
CN(C)C(=O)[C@H]1[C@H](CO)[C@H]2Cn3c(ccc(-c4cncnc4)c3=O)[C@@H]1N2C(=O)NC1CCCC1	-2.7	-3.6	0.8
C[C@@H]1CN([C@H](C)CO)C(=O)c2ccccc2-c2ccccc2CO[C@@H]1CN(C)C(=O)c1ccccc1	12.2	6.9	5.3
CC(C)C(=O)Nc1ccc2c(c1)C(=O)N(C)[C@@H]1CC[C@@H](CC(=O)NC3CCCC3)O[C@H]1CO2	3.4	-3.3	6.7
N#Cc1ccc(-c2ccc3c(c2)[C@H]2[C@H](CCN2C(=O)CN2CCOCC2)[C@H](CO)N3)cc1	2.1	-7.1	9.2
COc1ccc2c3c([nH]c2c1)[C@@H](CO)N(Cc1ccccc1F)CC31CN(C(=O)C2CCCC2)C1	?	.	.
COc1ccc2c3c([nH]c2c1)[C@H](CO)N(Cc1ccc(Cl)cc1)CC31CCN(Cc2ccccc2)CC1	?	.	.
O=C(C[C@@H]1CC[C@H]2[C@@H](COC[C@@H](O)CN2S(=O)(=O)c2ccc(F)cc2)O1)NCc1ccc(Cl)c(Cl)c1	?	.	.
C[C@@H]1CCCCO[C@@H](CN(C)S(=O)(=O)c2ccc(Cl)cc2)[C@H](C)CN([C@H](C)CO)C(=O)c2cc(NS(=O)(=O)c3cn(C)cn3)ccc2O1	2.4	6.2	-3.8
O=C(NCc1ccc(F)cc1)[C@H]1[C@H](CO)[C@H]2Cn3c(cccc3=O)[C@@H]1N2CC1CC1	7.5	-4.2	11.7
CCCNC(=O)N1CC2(C1)[C@@H](c1ccccc1)[C@H](CO)N2C(=O)C1CCC1	6.6	2.9	3.7
COc1ccc(CN2CC3(CN(C(=O)Cc4ccccc4)C3)c3c([nH]c4cc(OC)ccc34)[C@H]2CO)cc1	?	.	.
O=C([C@H]1[C@H](CO)[C@H]2Cn3c(cccc3=O)[C@H]2N1C(=O)CC1CC1)N1CCCCC1	2.8	0.0	2.8
CO[C@H](CN(C)CC1CCOCC1)[C@H](C)CN(C(=O)Nc1ccc(F)cc1)[C@H](C)CO	-5.0	-1.2	-3.8
CNC(=O)C[C@@H]1CC[C@@H]2[C@@H](COc3ccc(NC(=O)NC(C)C)cc3C(=O)N2C)O1	-0.3	-3.7	3.5
C[C@H]1CN([C@@H](C)CO)C(=O)c2cc(C#CC3CC3)cnc2O[C@@H]1CN(C)C(=O)c1ccc(F)cc1	-2.0	0.2	-2.2
CCCNC(=O)N1CC(=O)N2[C@H](CO)[C@@H](c3ccc(C#Cc4cccc(OC)c4)cc3)[C@@H]2C1	?	.	.
COCCNC(=O)C[C@H]1C[C@@H]2c3cc(NC(=O)C4CCC4)ccc3O[C@@H]2[C@@H](CO)O1	-4.5	-7.3	2.8
COc1cccc(CNC(=O)C[C@@H]2CC[C@@H]3[C@H](COc4ccc(NC(C)=O)cc4C(=O)N3C)O2)c1	0.4	-5.9	6.3
CCC(=O)N1CC(=O)N2[C@@H](CO)[C@@H](c3ccc(C#CC(C)C)cc3)[C@@H]2C1	-1.0	-1.2	0.2
N#C[C@H]1[C@@H](c2ccc(-c3ccccc3)cc2)[C@@H](CO)N1S(=O)(=O)Cc1ccccc1	-0.5	3.1	-3.6
C[C@H]1CN([C@@H](C)CO)C(=O)CCCn2nncc2CO[C@@H]1CN(C)C(=O)CCC(F)(F)F	0.9	1.5	-0.7
O=C(C[C@H]1C=C[C@@H](NC(=O)C2CC2)[C@H](CO)O1)NCc1ccncc1	0.7	-1.3	2.0
CNC[C@@H]1Oc2ncc(-c3ccccc3C)cc2C(=O)N([C@H](C)CO)C[C@@H]1C	-1.3	-1.5	0.2
CCCN1[C@@H]2Cn3c(cccc3=O)[C@H]1[C@@H](C(=O)N[C@H](C)c1ccccc1)[C@@H]2CO	-0.3	-1.9	1.6
Cc1noc(C)c1NC(=O)N(C)C[C@H]1Oc2ccc(NC(=O)Nc3ccc(C(F)(F)F)cc3)cc2C(=O)N([C@@H](C)CO)C[C@H]1C	0.9	-0.4	1.3
O=C(C[C@H]1C=C[C@H](NC(=O)C2CCC2)[C@@H](CO)O1)NC1CCCCC1	1.5	-1.0	2.5
CCN1[C@H](C(=O)OC)[C@@H](CO)[C@@H]2Cn3c(ccc(C4=CCCCC4)c3=O)[C@@H]21	-2.2	-2.3	0.1
O=C(C[C@@H]1C[C@H]2c3cc(NS(=O)(=O)c4ccc(F)cc4)ccc3O[C@H]2[C@@H](CO)O1)N1CCCCC1	4.1	4.3	-0.2
C[C@@H]1CN([C@@H](C)CO)C(=O)c2c(c3ccccc3n2C)-c2ccccc2CO[C@H]1CN(C)Cc1ccc2c(c1)OCO2	?	.	.
C[C@@H]1CN([C@H](C)CO)C(=O)c2cccc(NC(=O)C3CCCCC3)c2O[C@H]1CN(C)Cc1ccc(C(=O)Nc2ccccc2N)cc1	-5.0	-3.4	-1.6
CCC(=O)N1CC2(C1)CN(S(C)(=O)=O)[C@@H](CO)c1c2c2ccc(OC)cc2n1C	13.9	-5.7	19.5
CCCNC(=O)C[C@H]1CC[C@@H]2[C@H](COC[C@@H](O)CN2C(=O)Nc2ccccc2OC)O1	6.8	2.0	4.8
CCC(=O)N1CC2(C1)[C@H](c1ccc(-c3ccccc3C)cc1)[C@H](CO)N2C(C)=O	6.3	5.9	0.3
CC(=O)N1CC2(C1)[C@@H](c1ccccc1)[C@@H](CO)N2Cc1cccc(Cl)c1	0.2	-1.1	1.3
C[C@H](CO)N1C[C@H](C)[C@H](CN(C)C(=O)Nc2ccc(C(F)(F)F)cc2)Oc2ccc(NC(=O)C3CCCCC3)cc2C1=O	3.7	2.5	1.2
O=C(C1CCC1)N1CC2(C1)[C@@H](c1ccccc1)[C@@H](CO)N2C(=O)CC1CC1	5.4	3.6	1.8
N#C[C@H]1N[C@H](CO)[C@H]1c1ccc(-c2cccc(F)c2)cc1	-4.5	-6.8	2.3
CCCNC(=O)N1CC2(C1)[C@@H](c1ccccc1)[C@@H](CO)N2Cc1ccccn1	3.1	-4.1	7.2
CC(C)NC(=O)N[C@@H]1C=C[C@H](CC(=O)NCCCN(C)C)O[C@H]1CO	4.6	5.9	-1.3
CO[C@H]1CN(C)C(=O)c2ccc(NS(C)(=O)=O)cc2OC[C@H](C)N(Cc2ccccc2)C[C@H]1C	-0.3	-5.1	4.8
CO[C@@H](CN(C)C(=O)Nc1ccc(Cl)cc1)[C@@H](C)CN(Cc1ccccc1Cl)[C@H](C)CO	2.1	2.6	-0.4

Entries from the list above that contain an NH in an aromatic ring:
SMILES	DUX4 inh	DUX4 inh difference	DUX4 inh control
COc1ccc2c3c([nH]c2c1)[C@@H](CO)N(Cc1ccccc1F)CC31CN(C(=O)C2CCCC2)C1	?	.	.
COc1ccc2c3c([nH]c2c1)[C@H](CO)N(Cc1ccc(Cl)cc1)CC31CCN(Cc2ccccc2)CC1	?	.	.
COc1ccc(CN2CC3(CN(C(=O)Cc4ccccc4)C3)c3c([nH]c4cc(OC)ccc34)[C@H]2CO)cc1	?	.	.

The results go on:
SMILES	DUX4 inh	DUX4 inh difference	DUX4 inh control
CCCNC(=O)N1[C@H](CO)[C@@H](c2ccccc2)C12CN(C(=O)CC)C2	8.8	4.1	4.8
CCCNC(=O)N1CCC2(CC1)CN(S(C)(=O)=O)[C@@H](CO)c1c2c2ccc(OC)cc2n1C	6.7	3.7	2.9
CCN1CC(=O)N2[C@H](C1)[C@H](c1ccc(-c3ccccc3F)cc1)[C@@H]2CO	2.5	-1.6	4.1
Cc1ccccc1S(=O)(=O)N(C)C[C@@H]1OCc2ccccc2-c2c(n(C)c3ccccc23)C(=O)N([C@@H](C)CO)C[C@H]1C	?	.	.
COc1ccccc1S(=O)(=O)N[C@@H]1CC[C@@H](CCn2cc(C3CCCCC3)nn2)O[C@@H]1CO	2.5	-1.3	3.8
COc1ccc(-c2ccc3n(c2=O)C[C@H]2[C@H](CO)[C@@H](C(=O)NCC4CC4)[C@@H]3N2S(C)(=O)=O)cc1	9.4	8.3	1.1
Cc1ccc(S(=O)(=O)N2C[C@@H](O)COC[C@H]3O[C@H](CC(=O)NCC4CCCCC4)CC[C@@H]32)cc1	-6.9	-1.5	-5.3
C[C@@H]1CN([C@@H](C)CO)C(=O)CCCn2cc(nn2)CO[C@H]1CN(C)S(=O)(=O)c1cccc(C#N)c1	4.0	3.6	0.4
COc1ccccc1C#Cc1ccc([C@H]2[C@@H](C#N)N(C(=O)C3CCC3)[C@H]2CO)cc1	-0.2	-3.1	2.9
CCCNC(=O)N1[C@H](CO)[C@@H](c2ccccc2-c2ccc(F)cc2)[C@@H]1C#N	?	.	.
O=C(C[C@H]1CC[C@H]2[C@@H](COC[C@@H](O)CN2C(=O)c2ccccc2)O1)Nc1ccc(-c2ccccc2)cc1	?	.	.
C[C@H](CO)N1C[C@H](C)[C@@H](CN(C)CC2CCCCC2)Oc2c(NC(=O)Nc3ccc(F)cc3)cccc2C1=O	0.9	0.5	0.4
N#C[C@H]1N[C@@H](CO)[C@H]1c1ccccc1	-1.2	-1.8	0.6
N#C[C@@H]1[C@@H](c2ccc(C3=CCCCC3)cc2)[C@H](CO)N1C(=O)C1CCOCC1	-2.7	-5.2	2.5
C[C@@H]1CCCCO[C@H](CN(C)C(=O)CCC(F)(F)F)[C@@H](C)CN([C@@H](C)CO)C(=O)c2cc(NC(=O)Cc3ccccc3)ccc2O1	1.0	-1.2	2.2
CO[C@@H]1CN(C)C(=O)c2cc(NS(=O)(=O)c3ccc(C)cc3)ccc2OC[C@@H](C)N(Cc2ccccn2)C[C@H]1C	-5.3	-11.8	6.5
CN1C(=O)c2cc(NC(=O)Cc3cccs3)ccc2OC[C@H]2O[C@H](CC(=O)NCCCN3CCOCC3)CC[C@@H]21	0.2	-1.2	1.4
O=S(=O)(c1ccc(F)cc1)N1CCCCN2[C@@H](CO)[C@@H](c3ccc(-c4cncnc4)cc3)[C@@H]2C1	1.1	1.9	-0.7
CO[C@H]1CN(C)C(=O)c2ccc(NS(C)(=O)=O)cc2OC[C@H](C)N(CC2CC2)C[C@@H]1C	3.9	3.9	0.0
CCc1csc(N2[C@H](CO)[C@H](c3ccccc3)[C@@H]2CNC)n1	2.1	0.7	1.3

Whole records, quoted from the list. Screens in order: DUX4 inh | DUX4 inh difference | DUX4 inh control
O=S(=O)(c1ccc(F)cc1)N1CCCCN2[C@@H](CO)[C@@H](c3ccc(-c4cncnc4)cc3)[C@@H]2C1 as listed: 1.1 | 1.9 | -0.7
CO[C@H]1CN(C)C(=O)c2ccc(NS(C)(=O)=O)cc2OC[C@H](C)N(CC2CC2)C[C@@H]1C as listed: 3.9 | 3.9 | 0.0
CN1C(=O)c2cc(NC(=O)Cc3cccs3)ccc2OC[C@H]2O[C@H](CC(=O)NCCCN3CCOCC3)CC[C@@H]21 as listed: 0.2 | -1.2 | 1.4
